D2 agonist = Beta-Arrestin HTS for Positive Allosteric Modulators of the Human D2 Dopamine Receptor: Agonists. D(2) dopamine receptor (Homo sapiens), P14416. DiscoveRx PathHunter D2 beta-arrestin, luminescence, 90 min; 100% = 57 uM dopamine signal. activation, % (no concentration beside the values). hit rate 0.084% among 360,000. AID 624465, 2012; in the data active = activation above about 40%; inconclusive = about 15% to 40%; inactive = below about 15%; note: compound concentration not given in the record; the text of the record calls up to 30% inactive
Target sequence (P14416 whole entry, looked up): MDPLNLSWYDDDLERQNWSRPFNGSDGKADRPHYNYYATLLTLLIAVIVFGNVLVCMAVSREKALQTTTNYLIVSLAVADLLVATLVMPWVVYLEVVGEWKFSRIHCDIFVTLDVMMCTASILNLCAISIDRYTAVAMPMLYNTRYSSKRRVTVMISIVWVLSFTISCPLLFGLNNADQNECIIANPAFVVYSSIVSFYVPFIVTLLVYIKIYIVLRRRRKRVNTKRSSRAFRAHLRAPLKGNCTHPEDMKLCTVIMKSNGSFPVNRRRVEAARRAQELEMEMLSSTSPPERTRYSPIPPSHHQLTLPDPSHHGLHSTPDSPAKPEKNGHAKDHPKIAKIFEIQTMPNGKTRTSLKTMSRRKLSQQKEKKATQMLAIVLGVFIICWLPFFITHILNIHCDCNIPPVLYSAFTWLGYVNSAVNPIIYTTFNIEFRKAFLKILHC
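DiscoveRx PathHunter D2 beta-arrestin cells (2,100/well) attached overnight, then compound-stimulated 90 min at 37 C in HBSS/10 mM HEPES/0.1% Tween-20 buffer; beta-galactosidase complementation read by luminescence after 1 h at ambient temperature. Dopamine 57 uM final (EC100) as control.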
PINK1 modulator = A Quantitative High throughput Screen to Identify Chemical Modulators of PINK1 Expression; PINK1 immunofluorescence, high-content cytometry, 24 h; Potency, µM (series often up to 76.6 µM), for the others: top-dose activation (PINK1 increase), actives largely listed as activators; hit rate 0.2% among 410,000; AID 624263, 2012; active = well fitted activation curve with a large enough effect; inconclusive = small, poorly fitted or top-dose-only effect; inactive = flat fitted curve, though single readings scatter; cell line not stated here;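 note: potency is the fitted concentration of half-maximal effect; % of control where 0% means no effect; nearly all actives have a fitted effect of over 65% in size; a mitochondrial uncoupler was the plate control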
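Readout is PINK1 immunofluorescence, quantified alongside mitochondrial, cell and nuclear markers by laser-scanning microplate cytometry. Cells from a stable line were exposed to compound titrations (5 concentrations) for 24 hours, with CCCP controls.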
TRPML1 ag = qHTS for Agonists of the Human Mucolipin Transient Receptor Potential 1 (TRPML1) | activation, % (no concentration beside the values) | hit rate 0.12% among 410,000 | TRPML1-expressing cells, Ca2+ dye fluorescence, FDSS; host cell line not named in the record; reference of the full effect not given here; in the data active = activation above about 50%; inconclusive = about 30% to 50%; inactive = below about 30%; note: 0% is about no effect; the text of the record puts the active cut at 80%
Target sequence (Q9GZU1 whole entry, looked up): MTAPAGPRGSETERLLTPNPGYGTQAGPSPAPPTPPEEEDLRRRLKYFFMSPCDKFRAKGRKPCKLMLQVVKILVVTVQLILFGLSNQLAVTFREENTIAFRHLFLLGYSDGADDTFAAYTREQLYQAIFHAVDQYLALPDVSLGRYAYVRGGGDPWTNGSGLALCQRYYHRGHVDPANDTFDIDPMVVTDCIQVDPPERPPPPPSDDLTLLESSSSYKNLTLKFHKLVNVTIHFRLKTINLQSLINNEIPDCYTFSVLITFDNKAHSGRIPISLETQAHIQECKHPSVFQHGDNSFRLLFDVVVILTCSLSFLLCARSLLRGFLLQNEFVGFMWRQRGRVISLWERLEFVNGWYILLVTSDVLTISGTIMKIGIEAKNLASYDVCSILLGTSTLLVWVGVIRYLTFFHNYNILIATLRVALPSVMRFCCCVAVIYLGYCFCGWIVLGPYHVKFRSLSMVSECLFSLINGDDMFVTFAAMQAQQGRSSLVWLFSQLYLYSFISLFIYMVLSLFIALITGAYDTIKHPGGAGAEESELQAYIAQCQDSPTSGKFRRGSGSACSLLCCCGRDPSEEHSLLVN
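Kinetic FDSS Ca2+ read in Tet-induced TRPML1-DL cells (ABD Ca8 dye plus quencher, 45-90 min RT loading): baseline, then compound, then 110 s agonist window; EC80 agonist 54-4 at 4uM final added afterwards for a 110 s antagonist window.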
Six1-Eya2 inh = qHTS Assay for Inhibitors of the Six1/Eya2 Interaction; Homeobox protein SIX1 (Homo sapiens) + Protein phosphatase EYA2 (Homo sapiens), …; AlphaScreen GST-Six1/His-Eya2 binding, biochemical; active compounds read low; control for the full effect not named in the record; AID 651725, 2012; activity change, % (test concentration not listed); hit rate 0.56% among 360,000; in the data active = activity change below about -65%; inconclusive = about -30% to -65%; inactive = above about -30%; note: % is set by controls: 0 for no effect and ±100 for the full control effect
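AlphaScreen with GST-Six1 and His-Eya2 (5X mix: 250 nM and 500 nM), glutathione donor and nickel acceptor beads; buffer 50 mM Tris pH 8.0, 300 mM NaCl, 1 mM TCEP; 1 h at 37 C in the dark.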
D2 PAM = Beta-Arrestin HTS for Positive Allosteric Modulators of the Human D2 Dopamine Receptor: Potentiators. DiscoveRx D2 beta-arrestin cells, luminescence, 90 min; 100% = 57 uM dopamine signal. hit rate 0.23% among 360,000. D(2) dopamine receptor (Homo sapiens), P14416. potentiation, % (concentration not given with the values); active = potentiation of 50% or more; inconclusive = 30% to 50%; inactive = 30% or less;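 note: compound concentration not given in the record; tested on top of an EC20 dose of dopamine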
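D2 cells co-treated with compound plus 50 nM dopamine (EC20) for 90 min at 37 deg C to detect potentiation. Beta-arrestin recruitment was read as enzyme-fragment luminescence after 1 h at ambient temperature. Full response was set by 57 uM dopamine.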
CtBP-E1A inh = qHTS Assay for Inhibitors of the CtBP/E1A Interaction. CtBP / adenovirus E1A interaction (AlphaScreen). AlphaScreen GST-E1A/His-CtBP binding, 1536-well; active compounds read low; control for the full effect not named in the record. activity change, % (test concentration not listed). hit rate 0.49% among 340,000; in the data active means activity change below about -65%; inconclusive means about -30% to -65%; inactive means above about -30%; note: % is set by controls: 0 for no effect and ±100 for the full control effect
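Homogeneous bead-based format: GST-tagged E1A captured on glutathione donor beads, His-tagged CtBP on nickel acceptor beads; compounds precede bead addition by 2 h at 37 °C.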
* marks the source's active call; other numbers are inactive results; ? = inconclusive; . = no result given; [ ] = another dose, or the depositor's remark. This is a random part of the collection; overall some 1.3% were active at least once.

[1] O=C(NC(=S)Nc1ccccc1N1CCOCC1)c1ccc(-c2cc(Cl)ccc2Cl)o1
[2] CCc1cccc(C)c1NC(=O)CN(C)Cc1ccc(Br)cc1
[3] O=C(Nc1ccc2c(c1)OCO2)C1CCN(Cc2cc3c(cc2O)OCO3)CC1
[4] CCn1nc(CC(C)C)cc1C(=O)N1CCCC(Nc2ccc(OC)cc2)C1 (stereo unspecified)
[5] NC(=S)Nc1ccc2cc[nH]c2c1

Screen / compound no.,1,2,3,4,5
D2 agonist,1.2,-2.0,-5.0,1.9,2.0
PINK1 modulator,7.8%,5.5%,-1.0%,1.1%,3.3%
TRPML1 ag,0.6,0.2,1.7,0.7,1.1
Six1-Eya2 inh,1,3,-7,-1,0
D2 PAM,-6,-11,-18,-6,-7
CtBP-E1A inh,-2,1,-9,-12,0

[6] COC(=O)c1ccccc1NC(=O)COC(=O)c1ccc(C)c(NC(=O)c2ccco2)c1
[7] CCC(=O)NNc1ncnc2c1cnn2-c1cccc(C)c1
[8] O=S(=O)(c1cccc2ccccc12)N1CCCCC1
[9] COc1ccccc1-c1cc2nc(-c3ccccc3)cc(N3CCN(C(=O)c4ccco4)CC3)n2n1
[10] C#CCn1c(=NC(=O)CSC(C)=O)sc2cc(F)ccc21

Screen / compound no.,6,7,8,9,10
D2 agonist,-2.4,-3.4,-2.5,-5.4,-2.1
PINK1 modulator,7.8%[38.3 µM],1.7%,-0.5%,-0.5%,3.0%
TRPML1 ag,-0.6,-0.9,2.2,-0.3,-0.1
Six1-Eya2 inh,-6,2,7,3,0
D2 PAM,0,-2,2,4,-6
CtBP-E1A inh,-3,2,10,4,-2

Reprinted at random: 4 records from the list
[9] COc1ccccc1-c1cc2nc(-c3ccccc3)cc(N3CCN(C(=O)c4ccco4)CC3)n2n1
[4] CCn1nc(CC(C)C)cc1C(=O)N1CCCC(Nc2ccc(OC)cc2)C1 (stereo unspecified)
[3] O=C(Nc1ccc2c(c1)OCO2)C1CCN(Cc2cc3c(cc2O)OCO3)CC1
[5] NC(=S)Nc1ccc2cc[nH]c2c1

Screen / compound no.,9,4,3,5
D2 agonist,-5.4,1.9,-5.0,2.0
PINK1 modulator,-0.5%,1.1%,-1.0%,3.3%
TRPML1 ag,-0.3,0.7,1.7,1.1
Six1-Eya2 inh,3,-1,-7,0
D2 PAM,4,-6,-18,-7
CtBP-E1A inh,4,-12,-9,0

Further structures
[11] CCn1cc(C(=O)NCc2ccccc2Cl)cn1
[12] CCCCn1c(N)c(N(CCC(C)C)C(=O)CN2C(=O)C3CCCCC3C2=O)c(=O)[nH]c1=O (stereo unspecified)
[13] Cc1cc(=O)nc2c3ccccc3n(CC(=O)NC(C)c3ccc4c(c3)OCCO4)n12 (stereo unspecified)
[14] Cc1ccnc(SCc2cc(=O)c(OC(=O)c3ccccc3)co2)n1
[15] CCCC(=O)N1CCN(c2ccc(NC(=S)NC(=O)CC)cc2)CC1

Screen / compound no.,11,12,13,14,15
D2 agonist,-5.4,-3.8,0.1,-0.9,1.9
PINK1 modulator,0.3%,-0.4%,-1.9%,3.5%,-6.6%[38.3 µM]
TRPML1 ag,-0.1,-0.5,-1.0,-0.6,0.8
Six1-Eya2 inh,13,4,0,-1,4
D2 PAM,-2,-24,-6,11,-16
CtBP-E1A inh,-1,6,-4,2,-1

[16] COc1ccccc1N(CC(=O)NC1CCCC1)S(=O)(=O)c1cccc(C(F)(F)F)c1
[17] CCC(Cc1ccccc1)NCc1c(C(=O)O)c(C)n(Cc2ccccc2)c1C (stereo unspecified)
[18] Cc1c(C(=O)OC2CCC(C)CC2)[nH]c2c1C(=O)CCC2 (stereo unspecified)
[19] COc1ccc(N2CCN(C(c3ccccc3OC)c3nnnn3C3CCCC3)CC2)cc1 (stereo unspecified)
[20] COc1ccc(NCC(=O)N/N=C2\CCCC(C)C2)cc1 (stereo unspecified)

Screen / compound no.,16,17,18,19,20
D2 agonist,-1.5,1.4,5.0,-3.8,-1.7
PINK1 modulator,-0.5%,-1.7%,5.3%,-0.9%,5.8%
TRPML1 ag,1.0,-0.8,0.7,79*,0.0
Six1-Eya2 inh,11,-7,1,?,6
D2 PAM,1,-13,1,-22,1
CtBP-E1A inh,6,0,4,?,0

[21] CC1(C)NC(=O)N(CC(=O)N2CCN(c3cccc(Cl)c3)CC2)C1=O
[22] CCC(C)c1ccc(NC(=O)COc2c(F)c(F)c(C(F)(F)F)c(F)c2F)cc1 (stereo unspecified)
[23] CC(C)NC(=O)CN1CCC(c2nc3ccccc3[nH]2)CC1
[24] C/C(O)=C(\N=Nc1cc(C)ccc1O)C(N)=O
[25] C#CCn1c(=NC(=O)c2cc(Cl)sc2Cl)sc2cc(S(N)(=O)=O)ccc21

Screen / compound no.,21,22,23,24,25
D2 agonist,-3.2,0.1,-2.4,1.7,-3.0
PINK1 modulator,0.4%,?,4.7%,10%,13%
TRPML1 ag,-0.1,2.2,-0.6,-0.7,-0.2
Six1-Eya2 inh,2,15,-2,-7,16
D2 PAM,0,-6,0,-4,3
CtBP-E1A inh,7,34,.,.,15

[26] O=C(O)c1ccccc1C(=O)NCCc1c(C(=O)O)[nH]c2ccc(Cl)cc12
[27] Cn1c(SCc2nc3ccccc3c(=O)[nH]2)nnc1-c1ccco1
[28] COc1cccc(Cn2cc(/C=N/NC(=O)c3cc(O)cc(O)c3)c3ccccc32)c1
[29] C=CCn1c(=O)c(C(=O)Nc2ccc(C)cn2)c(O)c2ccccc21
[30] CC1CCN(CCCNC(=O)c2cc3c(Cl)nc4ccccc4c3s2)CC1

Screen / compound no.,26,27,28,29,30
D2 agonist,-1.2,-2.9,-2.5,-3.3,1.0
PINK1 modulator,-0.9%,.,-1.0%,8.7%,-1.0%
TRPML1 ag,.,-0.1,0.3,-0.2,0.4
Six1-Eya2 inh,-1,-3,-25,4,-11
D2 PAM,-23,-4,3,9,-18
CtBP-E1A inh,-10,7,-16,.,.

[31] O=C(CSc1ccccn1)Nc1ccc(Cl)cn1
[32] Cc1nc(NC(=S)NC(=O)COc2ccc(Cl)cc2)ccc1Br
[33] COc1ccccc1-n1c(SCC(=O)OC(C)C)nc2cccnc21
[34] C/C=C/c1ccc(OCCCCOc2ccc(OC)cc2)c(OC)c1
[35] c1ccn(-c2ccc(N3CCOCC3)cc2)c1

Screen / compound no.,31,32,33,34,35
D2 agonist,-6.1,-1.5,4.0,-5.1,-0.7
PINK1 modulator,0.5%,0.1%,1.2%,0.1%,2.1%
TRPML1 ag,5.6,-0.2,0.8,-0.4,1.2
Six1-Eya2 inh,4,1,0,9,?
D2 PAM,-2,-4,11,-5,-27
CtBP-E1A inh,11,13,5,5,-23

[36] O=C(NCCSCc1ccco1)Nc1cccc(Cl)c1
[37] O=S(=O)(c1cccc2cccnc12)N1CCN(Cc2ccccc2)CC1
[38] CC(=O)c1c(C)[nH]c(C(=O)Nc2cccc(S(=O)(=O)N3CCCCC3)c2)c1C
[39] Nc1cc(OCC(F)(F)F)cc(OCC(F)(F)F)c1
[40] O=C(COC(=O)c1c(Cl)ccc(Cl)c1Cl)NCC1CCCO1 (stereo unspecified)

Screen / compound no.,36,37,38,39,40
D2 agonist,-1.7,1.2,-3.5,-0.6,-1.2
PINK1 modulator,.,1.5%,9.0%,2.0%,2.7%
TRPML1 ag,0.9,1.1,-0.2,-1.3,0.9
Six1-Eya2 inh,-7,-3,-27,2,-8
D2 PAM,-30,-7,-20,3,-3
CtBP-E1A inh,10,-1,-27,1,4

[41] Cc1ccccc1N1C(=S)NC2c3ccccc3OC1(C)C2C(=O)N(C)C (stereo unspecified)
[42] O=C(OC(C(=O)NCc1ccc(F)cc1)c1ccccc1)c1ccco1 (stereo unspecified)
[43] O=C(CSc1ncccn1)NNC(=O)c1ccccc1
[44] C/C=C(/C)C(=O)Nc1cccc(C2=NOC3(C2)C[C@@H](C(N)=O)N(C(=O)CC(c2ccccc2)c2ccccc2)C3)c1 (stereo partly specified)
[45] COc1cc(C2NC(=S)NC(C)=C2C(=O)Nc2cc(C)cc(C)c2)ccc1O (stereo unspecified)

Screen / compound no.,41,42,43,44,45
D2 agonist,-12,-3.7,-3.3,-1.7,5.8
PINK1 modulator,0.6%,2.4%,-0.3%,1.2%,0.9%
TRPML1 ag,-0.4,-1.2,0.0,-0.5,0.0
Six1-Eya2 inh,-3,2,-1,-5,0
D2 PAM,-8,-4,-16,-4,-4
CtBP-E1A inh,-3,1,-9,-9,1

[46] NC(=O)NC(=O)COC(=O)c1ccc(OC(F)F)cc1
[47] O=C(Cc1ccccc1Cl)Nc1cccc(S(=O)(=O)N2CCOCC2)c1
[48] Cc1ccc(CNC(=O)C2CC(=O)N(C3CCCCCC3)C2)cc1 (stereo unspecified)
[49] CCc1nc(NC(C)C)c2oc3ccccc3c2n1
[50] CCOC(=O)CSc1nc(-c2ccncc2)ccc1C#N

Screen / compound no.,46,47,48,49,50
D2 agonist,2.1,-1.1,-3.6,-1.6,1.0
PINK1 modulator,1.9%,4.6%,0.0%,2.0%,0.7%
TRPML1 ag,-0.3,0.8,-0.5,0.3,-0.6
Six1-Eya2 inh,-3,-3,3,-1,-8
D2 PAM,-10,1,-5,-27,14
CtBP-E1A inh,.,-1,-1,10,8

[51] O=c1c2ccccc2c2ccccc2c(=O)n1Cc1ccc2c(c1)OCO2
[52] Cn1c(NC(=O)c2ccccc2F)cc(=O)n(C)c1=O
[53] Cc1ccc(S(=O)(=O)Nc2cc(C(F)(F)F)ccc2N2CCOCC2)c(C)c1
[54] CN(C)c1ccc(C(=O)OCC(=O)c2ccc[nH]2)cc1
[55] COC(=O)Cc1c(C)c2ccc(OC(=O)c3ccccc3)cc2oc1=O
[56] CCN1C(=O)[C@H]2[C@H]3CN=C(SC)N3[C@@](C)(C(=O)OC)[C@H]2C1=O

Screen / compound no.,51,52,53,54,55,56
D2 agonist,-1.7,-4.1,2.4,2.9,-0.8,-0.5
PINK1 modulator,7.3%,1.8%,4.0%,-0.4%,6.2%[38.3 µM],0.3%
TRPML1 ag,-0.5,-0.3,64*,-0.3,0.2,-0.4
Six1-Eya2 inh,-6,2,24,-8,-22,6
D2 PAM,-5,-3,-3,-2,-8,.
CtBP-E1A inh,-3,-2,8,-5,4,5

Compound activity: PubChem, National Center for Advancing Translational Sciences (NCATS)
